# VDR inhibitor: blocks the human vitamin D receptor | actives 0.93% (n = 400,000) | Potency, µM, without a hit: max response, negative = inhibition, hits mostly inhibitors | AID 504847 | P11473 | VDR-SRC2-3 peptide fluorescence polarization, 2 h; active means well fitted inhibition curve with a large enough effect; inconclusive means small, poorly fitted or top-dose-only effect, or another doubt; inactive means no such curve, though single readings can be large or run the other way; further: series mostly up to about 120 µM
# Target sequence (P11473 whole entry, looked up): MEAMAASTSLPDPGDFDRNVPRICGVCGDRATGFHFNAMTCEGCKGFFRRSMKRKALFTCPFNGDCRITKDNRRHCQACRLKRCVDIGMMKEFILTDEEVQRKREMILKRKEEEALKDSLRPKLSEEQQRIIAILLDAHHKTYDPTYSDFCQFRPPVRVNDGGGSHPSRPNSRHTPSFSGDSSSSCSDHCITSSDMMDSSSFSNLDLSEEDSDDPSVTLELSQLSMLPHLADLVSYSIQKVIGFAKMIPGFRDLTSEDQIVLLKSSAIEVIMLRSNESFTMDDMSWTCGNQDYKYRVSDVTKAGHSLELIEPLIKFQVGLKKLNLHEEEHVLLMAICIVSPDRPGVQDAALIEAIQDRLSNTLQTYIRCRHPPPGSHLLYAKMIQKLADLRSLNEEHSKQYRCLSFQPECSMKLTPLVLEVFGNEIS
#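 The screen uses fluorescence polarization to detect compounds that interfere with recruitment of the SRC2-3 coactivator peptide to VDR; plates are read after 2 h at room temperature.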
# Starred values were filed as active, the others as inactive; ? = inconclusive; & = joins results of further samples. On the % scale 0 is the no-effect control and ±100 the full control effect; potency means the concentration at half of the fitted maximal effect.
SMILES,VDR inhibitor
CCOC(=O)c1c(S(=O)(=O)N2CCN(C)CC2)c(C)n(C)c1C,-11%
CN(c1ccc(OCC(=O)NCc2cccnc2)cc1)S(=O)(=O)c1ccc(Cl)cc1,-10%
CCCCC/C=C\C/C=C\C/C=C\C/C=C\CCCC(=O)O[C@@H](CO)COCCCCCCCCCCCCCCCC,-10%&-12%
COc1cc(CN(CC2CCCO2)C(=O)c2cccs2)cc(OC)c1OC (centres undefined),5%
CCC(=O)Nc1ccc(S(=O)(=O)N2CCOCC2)cc1,-5%
Cc1ccc(-c2nnc(Nc3ccc(Cl)cc3)c3ccccc23)cc1S(=O)(=O)N1CCOCC1,1%
Nc1cccc(Cl)c1N1CCOCC1,5%
CCOC(=O)NC1CCc2cc(OC)c(OC)c(OC)c2-c2ccc(SC)c(=O)cc21 (centres undefined),5%
O=C(CSc1cccc[n+]1[O-])N1CCCCCC1,-10%
Cc1ccc(Nc2nc(Cl)c(C=O)s2)cc1,-11%
Cc1ccc(S(=O)(=O)N2CCN(C(=O)Cn3nc(C)c([N+](=O)[O-])c3C)CC2)cc1,6%
O=C(NCc1cn2ccccc2n1)c1ccc2c(c1)OCO2,?
Cc1ccc(SCc2cc(=O)[nH]c(Nc3nc(C)c4ccccc4n3)n2)cc1,-28%
Cc1ccc(NC(=O)COC(=O)CN2C(=O)c3ccccc3C2=O)cc1S(=O)(=O)N(C)C,2%
Cc1ccc(N(CC(=O)NCc2ccccc2Cl)S(=O)(=O)c2c(C)noc2C)cc1,0%
Cc1ccc(-c2cc(-c3ccccc3)nc(N(C)N)n2)cc1,-2%
O=C1c2ccccc2C(=O)c2c(O)ccc(O)c21,45µM*
Cc1cc(C)cc(NC(=O)Cn2c3ncccc3c(=O)n2-c2ccc(C)c(C)c2)c1,7%
Cc1nc2c(C)cccc2c2c1CCS2,15%
N#Cc1c2c(c(-n3cnc4ccccc43)n3c1nc1ccccc13)CCC2,14%
Cc1ccc(SCC(=O)NC(=O)NCCC(C)C)c(C)c1,-13%
Cc1cnc(C(=O)Oc2c(C)ccc(C)c2C)cn1,-10%
Cn1ccc2cc(S(=O)(=O)N3CCN(C(=O)Nc4cccc(F)c4)CC3)ccc21,18%
CC(C)CC(NC(N)=O)C(=O)NCCc1ccc(Cl)cc1 (centres undefined),-11%
Cc1cccc(C(=O)NC(=S)NCc2cccnc2)c1,-6%
COc1ccc(S(=O)(=O)N2CCC(C(=O)NCc3ccncc3)CC2)cc1OC,4%
O=C(O)CCCCCNC(=O)c1ccccc1,7%
COCc1cc(C)nc2sc(C(=O)Nc3ccccc3F)c(N)c12,-2%
Cc1ccc(NC(=O)CN(C)C(=O)c2n[nH]c(=O)c3ccccc23)cc1,8%
COC(=O)C1CCN(Cc2nnc(-c3ccccc3)o2)CC1,4%
CCOc1ccc(NC(=O)CCc2c(C)nc3cc(-c4ccccc4OC)nn3c2C)cc1,-12%
O=C(NCc1cccs1)c1ccc(CS(=O)(=O)c2ccc(Cl)cc2)o1,4%
O=C(CSC1=NCCN1)NC(c1ccccc1)c1ccccc1,-16%
CC(=O)Oc1ccc(/C(C)=N\N2CCN(Cc3ccc(Cl)cc3)CC2)cc1,3%
CCCN(CCC)CCNC(=O)Cn1cc2c(n1)-c1c(oc(C(=O)N3CCCC3)c1C)CC2,14%
COc1ccc(Oc2ncc3nc(-c4cccs4)c(=O)n(-c4ccccc4)c3n2)cc1,-8%
CCOC(=O)N1CCN(C(=O)CCl)CC1,-19%
Cc1ccc(C(=O)Nc2nc3ccccc3n2CCN2CCCC2)cc1,4%
NS(=O)(=O)c1ccc(CCNC(=O)CSc2ccc3ccccc3c2)cc1,?
CCc1nnc(NC(=O)c2nc(S(=O)(=O)Cc3cccc(C)c3)ncc2Cl)s1,13µM*
CCc1ccc(C(=O)CSc2nc(N)cc(=O)[nH]2)cc1,-4%
COc1cc(NC(=O)c2sc3ncn(CC(=O)N4CCCC(C)C4)c(=O)c3c2C)cc(OC)c1OC (centres undefined),-12%
O=C(CCNC(=O)c1ccc(Br)cc1)Nc1cccc(S(=O)(=O)N2CCCCCC2)c1,-19%
Cc1ccc2nc(-c3ccco3)c(Nc3ccccc3)n2c1,-11%&-12%
CC(C)CN(C(=O)COC(=O)C1CC1)c1c(N)n(Cc2ccccc2)c(=O)[nH]c1=O,7%
N#Cc1ccccc1CN1C(=O)NC2(CCCCCC2)C1=O,-12%
CN(CCOc1ccc(Cl)cc1)CC(O)c1ccccc1 (centres undefined),-10%
CCOc1ccc(-c2cn3ccccc3n2)cc1,-13%
COc1ccc(C(=O)CSc2[nH]c(=O)cc(C(F)(F)F)c2C#N)cc1,-4%
CCOc1ccccc1N=c1oc2cc(O)ccc2cc1C(=O)NCC1CCCO1 (centres undefined),0%
O=C(CC1(O)C(=O)Nc2cc(Cl)cc(Cl)c21)c1ccncc1 (centres undefined),-5%
O=C(COc1ccc(Br)cc1)NCCCn1ccnc1,2%
COc1ccc(-c2nc3cnc(Nc4cccc(OC)c4)nc3n(Cc3cccs3)c2=O)cc1,5%
COc1ccccc1-c1cc(-c2ccc(O)cc2)nc(N)c1C#N,15%
Cc1ccc(NC2CCCN(C(=O)CCc3cn[nH]c3)C2)cc1C (centres undefined),-11%
CC(C)(C)NC(=O)C(=O)NNC(=O)c1cccc(Br)c1,-19%
O=C(C[C@@H]1C/C=C\C[C@@H](NC(=O)OCC2c3ccccc3-c3ccccc32)C(=O)OCCNC1=O)N[C@@H](CO)Cc1ccccc1,0%
Cc1ccc2nc(N(CCN(C)C)C(=O)C3=COCCO3)sc2c1,-20%
COc1ccccc1CNC(=O)Cn1cccc1C(=O)c1ccccc1,-11%
Cc1cc(C)nc(NS(=O)(=O)c2ccc(N3C(=O)C4CCCCC4C3=O)cc2)n1 (centres undefined),9%

# Other compounds.
SMILES,VDR inhibitor
Cc1cccc(NC(=O)CNC(=O)COC(=O)c2ccco2)c1C,24%
CC12C=CC3(O1)C(C(=O)N(c1cccnc1)C3C(=O)NC1CCCCC1)C2C(=O)Nc1ccccc1 (centres undefined),-9%
CSc1nc(O)c(C(c2cccc([N+](=O)[O-])c2)c2c(O)nc(SC)[nH]c2=O)c(=O)[nH]1,-1%
O=C(Nc1ccc2c(c1)OCCO2)c1cc(-c2ccccc2)nc2ccccc12,5%
COc1ccc(Cl)cc1/C=C(\C#N)C(N)=O,-16%
Cc1ccc(S(=O)(=O)N2CCN(C(=O)COC(=O)COc3ccc(Br)cc3)CC2)c(C)c1,11%
O=C(CN(CC1CCCO1)C(=O)CNS(=O)(=O)c1ccccc1)NCc1ccccc1 (centres undefined),-10%
C=CC[C@H](CC(=O)NCCO)C(=O)NCCOC(=O)[C@@H](CC=C)Cc1ccc(F)cc1,-4%
O=S(=O)(c1cccc(-c2nnc(SCc3nc4ccccc4s3)o2)c1)N1CCOCC1,-13%
Cn1c(=O)[nH]c(=O)c2c1nc(N1CCN(Cc3ccccc3)CC1)n2CCCc1ccccc1,5%
O=C(CC(CC(=O)c1ccc(Br)cc1)c1cccnc1)c1ccc(Br)cc1,14%
COc1ccc(C)cc1S(=O)(=O)Nc1ccc(F)c(Cl)c1,22%
O=C(Nc1ccc2c(c1)Cc1ccccc1-2)c1cc2ccccc2o1,9%
Cn1cnc(NCc2ccccc2)c1[N+](=O)[O-],8%
O=C(O)c1cccc(C(=O)Nc2cccc(NC(=O)C3CCCO3)c2)c1 (centres undefined),-7%
COc1ccc(C2=NCCn3nc4cc(C(F)(F)F)ccc4c32)cc1,13%
COc1ccccc1-c1cncnc1NCCc1cnc[nH]1,-10%
O=C(Nc1nnc(-c2ccc(F)cc2)s1)c1c(F)cccc1Cl,-26%
CCOC(=O)C1=C(C)NC(C)=C(C(=O)OCC)C1C(=O)OCC(=O)N1CCC(C)CC1,-11%&-9%
O=c1[nH]nc(-c2ccccc2)c2ccccc12,6%
CC(Sc1ncc(C(F)(F)F)cc1Cl)C(=O)NCC1CCCO1 (centres undefined),-7%
CC(NC(=O)CC1Sc2ccccc2NC1=O)c1ccccc1 (centres undefined),24%
Cc1cc(C(=O)COc2ccc3ccc(=O)oc3c2)c(C)n1C,0%
Cc1c2cnn(CC(=O)N3CCCCC3)c(=O)c2c(C)n1Cc1ccc(F)cc1,-7%
Cc1cc(NC(=O)c2cnn(-c3ccccc3)c2-n2cccc2)ccc1Br,8%
CN1C(=O)CSC1=Nc1cccc(Cl)c1,-1%
CC(=O)N1CCC2(CC1)CN(Cc1cc(C(F)(F)F)cc(C(F)(F)F)c1)C2,-20%
COCCNCCOc1ccccc1-c1ccccc1,28%
CCOC(=O)c1c(NC(C)=O)c2c3c(sc2n1Cc1nc(-c2ccccc2Cl)oc1C)CCCC3,3%
Nc1ncnc(NC2CCS(=O)(=O)C2)c1[N+](=O)[O-] (centres undefined),1%
Cc1cc(C)n(-c2ncccc2[N+](=O)[O-])n1,12%
COC(=O)c1cc(Br)ccc1N(Cc1cc(OC)cc(OC)c1)S(C)(=O)=O,-20%
O=C1OCC/C1=C\OCCCO/C=C1\CCOC1=O,-14%
COC(=O)CN(c1ccccc1)S(=O)(=O)c1ccccc1,19%
COc1ccc(NC(=S)Nc2ccccn2)cc1,7%
O=C(c1ccco1)N1CCN(c2ncnc3c2cnn3-c2ccccc2)CC1,5%
Cc1onc(-c2ccccc2Cl)c1C(=O)N1C=CC(C(F)(F)F)=NCC1,-3%
Cc1nc2ccc(S(=O)(=O)NCC(=O)NCc3ccc(Cl)cc3)cc2s1,-18%&0%
Cc1ccccc1OCC(=O)NCCNC(=O)c1ccccn1,6%
O=C(CNc1ccc2ccccc2c1)N/N=C/c1ccc(OC(=O)/C=C/c2ccco2)cc1,8%

# Part of the list above, with tabs.
Molecule	VDR inhibitor
Cc1cc(C(=O)COc2ccc3ccc(=O)oc3c2)c(C)n1C	0%
Cc1c2cnn(CC(=O)N3CCCCC3)c(=O)c2c(C)n1Cc1ccc(F)cc1	-7%
Cc1cc(NC(=O)c2cnn(-c3ccccc3)c2-n2cccc2)ccc1Br	8%
CN1C(=O)CSC1=Nc1cccc(Cl)c1	-1%
CC(=O)N1CCC2(CC1)CN(Cc1cc(C(F)(F)F)cc(C(F)(F)F)c1)C2	-20%

# Four of these compounds, set out differently.
COCCNCCOc1ccccc1-c1ccccc1
- VDR inhibitor: 28%

CCOC(=O)c1c(NC(C)=O)c2c3c(sc2n1Cc1nc(-c2ccccc2Cl)oc1C)CCCC3
- VDR inhibitor: 3%

Nc1ncnc(NC2CCS(=O)(=O)C2)c1[N+](=O)[O-] (centres undefined)
- VDR inhibitor: 1%

Cc1cc(C)n(-c2ncccc2[N+](=O)[O-])n1
- VDR inhibitor: 12%

# Continuation:
SMILES,VDR inhibitor
NC(=O)/C(=N\O)c1ccccc1,0%
CC(C)(Cc1nc2ccccc2[nH]1)C(=O)O,-21%
CCN(C(=O)COc1ncnc2scc(-c3ccc(F)cc3)c12)C1CCS(=O)(=O)C1 (centres undefined),0%
CC(Cc1cccs1)NC(=O)NC1CCCCC1 (centres undefined),3%
O=C(Nc1ccccc1C(=O)N1CCCCC1)c1ccccc1C(F)(F)F,-19%
O=C(NCC(=O)N1CCN(c2ccccc2F)CC1)c1cccs1,-6%
COc1cc(NC(=O)CSc2nnc3c(n2)[nH]c2ccc(OC)cc23)cc(OC)c1,-4%
CN(Cc1ccccc1)C(=O)Nc1ccc2c(c1)N(C)C(=O)c1ccccc1S2,14%
CN(C(=O)c1cccc(NC(=O)Cc2cccc(NC(=O)C3CCCN(C(=O)c4ccccc4)C3)c2)c1)C1CC1 (centres undefined),-18%
CC(/C=C/c1ccccc1)=N/NC(=O)C(O)c1ccccc1 (centres undefined),2%
CCN(C(=O)Cn1cc(C(=O)C(=O)N2CCOCC2)c2ccccc21)c1ccccc1,-3%
CCc1ncc(C(=O)c2ccc(OC)cc2)n1C,16%
Cc1cc(-c2ccc(C)c(S(=O)(=O)N3CCOc4ccc(Cl)cc43)c2)on1,-5%
CCOc1ccc(N(C(C)C(=O)Nc2cc(Cl)ccc2OC)S(C)(=O)=O)cc1 (centres undefined),-16%
CC(=O)c1cccc(OCC(O)CN2CCN(S(=O)(=O)c3c(F)cccc3F)CC2)c1 (centres undefined),-26%
CC(=O)c1ccc(N2CCN(CC(=O)NC(=O)NCc3ccccc3)CC2)cc1,13%
CCOC(=O)N1CCN(C(=O)COc2ccccc2Cl)CC1,-2%
CCOC(=O)c1[nH]c2c(c1Cc1ccccc1OC)C(=O)CC(c1ccc(OC)cc1)C2 (centres undefined),1%
C=CCn1c(SCc2csc(C)n2)nc2sc3c(c2c1=O)CCCC3,-11%
CCOc1cccc(C2C(C#N)=C(N)Oc3cc(C)oc(=O)c32)c1OCC (centres undefined),10%
CNC(=S)N/N=C(\C)c1ccc(Cl)s1,4%
Cc1ccccc1CC(=O)NC1CCCCCC1,-2%
Cc1nnc(SCC(=O)N2CCN(c3ccccc3)CC2)n(N)c1=O,0%
CC(=O)Nc1ccc(NC(=O)C(C)OC(=O)CCc2c[nH]c3ccccc23)cc1 (centres undefined),-7%
CCCn1nnnc1SCC(=O)NCc1ccc(OC)cc1,2%
CN(Cc1ccccc1)S(=O)(=O)c1cccc(C(=O)O)c1,-1%
CC(C)C(=O)Nc1cccc(-c2cnc3ccccc3n2)c1,9%
CCc1ccc(NC(=O)N(C2CCC(C)CC2)C2CCN(C(C)=O)CC2)cc1 (centres undefined),17%
CCOC(=O)N1CCN(C(=O)c2cn(CC)c3ccc(S(=O)(=O)N4CC(C)CC(C)C4)cc3c2=O)CC1 (centres undefined),3%
CC1=C(C(=O)Nc2cc(C(=O)N3CCC(C)CC3)ccc2C)SCCO1,0%
CN(CC(=O)N1CCc2ccccc21)S(=O)(=O)c1ccc(Br)s1,19%

# Source: PubChem (National Center for Advancing Translational Sciences (NCATS))

# Only part of the results is shown; the hit share may differ from the screen's.
